# GIV-Gai inh – inhibitors of GIV peptide binding to Galpha-i3, primary screen, biochemical, fluorescence polarization, FITC-GIV GBA peptide, rat Galphai3; Guanine nucleotide-binding protein G(i) subunit alpha-3 (Rattus norvegicus), P08753; 90 min; active compounds read low; scaled: aluminum fluoride 0%, vehicle 100%; percent of control (FP), % (concentration not given with the values); hit rate 0.42% among 210,000; AID 1224905, 2016;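 active = replicate mean at 85% of control or lower, very high polarization wells dropped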;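 also: wells of about 15 µL received 100 nL stock; the first replicate is given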
# Target sequence (P08753 whole entry, looked up): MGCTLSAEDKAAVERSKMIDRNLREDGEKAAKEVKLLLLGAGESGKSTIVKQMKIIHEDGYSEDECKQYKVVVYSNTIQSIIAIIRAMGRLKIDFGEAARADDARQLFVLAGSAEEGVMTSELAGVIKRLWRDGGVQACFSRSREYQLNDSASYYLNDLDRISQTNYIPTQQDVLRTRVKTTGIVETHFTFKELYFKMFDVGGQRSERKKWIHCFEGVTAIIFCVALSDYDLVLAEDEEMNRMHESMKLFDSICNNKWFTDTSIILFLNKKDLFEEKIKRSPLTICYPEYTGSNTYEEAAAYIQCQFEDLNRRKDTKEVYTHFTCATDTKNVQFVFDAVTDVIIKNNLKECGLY
# HCMV UL50-53 inh – inhibitors of HCMV UL50-UL53 interaction, biochemical, HTRF; HCMV UL50-UL53 nuclear egress complex (human cytomegalovirus); normalized percent inhibition; inhibition, % (no concentration beside the values); hit rate 0.15% among 190,000;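 active = both replicates at 50% or more, plus weaker picks with an unusually low signal ratio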;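 also: stock transfer was 100 nL into about 20 µL; 0% = negative control wells and 100% = wells with untagged competitor protein; inactives centre near -12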
# Sa growth 42C – S. aureus growth inhibition at 42 and 30 °C, primary screen, LtaS inhibitor project, RN4220, two temperatures | OD600, 20 h, 42 °C; active compounds read low | relative growth, % (test concentration not listed) | hit rate 0.53% among 170,000;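 active = growth at 42 °C up to 50% and 20 or more points under that at 30 °C, or under 10% at both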;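 also: 300 nL library stock went into each well; scaled to the means of positive and negative controls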
# Sa growth 42C second temp – second read-out of Sa growth 42C, no call of its own (marks repeat the call); relative growth, %; measured here: growth at 30 °C;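 optical density after 20 h as mean of two plates; 100% = untreated growth and lower means inhibition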
# * marks the source's active call; other numbers are inactive results; . = no result given.
smiles | GIV-Gai inh | HCMV UL50-53 inh | Sa growth 42C | Sa growth 42C second temp
Cc1ccccc1Nc1c(-c2ccc(Cl)s2)nc2c(C)cccn12 | 103 | -13 | 118 | 95
CCC(=O)Nc1nc2cc(NC(=O)c3cc4ccccc4[nH]3)ccc2s1 | 104 | -27 | . | .
CCOC(=O)c1ccc2c(c1)N(Cc1cc(C)ccc1C)C(=O)c1ccccc1S2(=O)=O | 101 | . | 96 | 93
COC(=O)c1c2c(c[n+](C)c1C)COC(C)OC2 (stereo not drawn) | 97 | -38 | 96 | 92
COc1cc(/C=C2\C(=O)NC(=O)N(c3ccc(F)cc3)C2=O)ccc1OCC(=O)O | 108 | -19 | . | .
COc1cc(OC)c(C(=O)OCC(=O)N(C)C2CCCCC2)cc1OC | . | -9 | 96 | 92
CCOC(=O)c1cnc(SCC(=O)OC)nc1N | 100 | 10 | 97 | 91
C1=CC2c3ccccc3NC(c3ccncc3)C2C1 (stereo not drawn) | . | -17 | 110 | 60
O=C(OCC(=O)c1ccccc1Br)c1ccco1 | . | -30 | 106 | 89
CCc1ccc(NC(=O)Cn2c(=O)c3cccn3c3ccccc32)cc1 | 101 | -5 | 79 | 67
Oc1ccccc1C(C#Cc1ccccc1)N1CCCCC1 (stereo not drawn) | . | -16 | 105 | 95
O=C(NCCN1C(=O)S/C(=C\c2ccc(F)cc2)C1=O)c1cc(F)c(F)c(F)c1F | . | -6 | 96 | 85
Cc1ccc(-c2noc(CNC(=O)c3ccc4c(c3)OCO4)n2)cc1 | 100 | -10 | 102 | 82
CCOC(=O)Cc1csc(SC(C)C#N)n1 (stereo not drawn) | . | -21 | 73 | 85
Cc1nn(C(C)C)c(C)c1S(=O)(=O)N1CCN(C(=O)c2ccnn2C)CC1 | 107 | -13 | . | .
CCc1ccccc1Nc1cc(C(=O)NC2CCC(C)CC2)c2ccccc2n1 (stereo not drawn) | 105 | 0 | 103 | 97
COc1cc(C(=O)NCc2nc(-c3ccccc3C)no2)cc(OC)c1OC | 106 | 3 | 112 | 87
O=C1C2C3C=CC(C3)C2C(=O)N1c1ccc(-c2cnc(-c3ccc(N4C(=O)C5C6C=CC(C6)C5C4=O)cc3)nc2)cc1 (stereo not drawn) | 105 | -10 | . | .
COc1cc(NC(=O)C2CCCN(S(=O)(=O)c3ccc4c(c3)CCCC(=O)N4)C2)cc(OC)c1 (stereo not drawn) | 105 | . | 130 | 81
Cn1c(=O)c2c(SC/C(O)=C(\C#N)c3nc4ccccc4[nH]3)nc(C(C)(C)C)nc2n(C)c1=O | . | 0 | 81 | 96
O=C(Nc1ccccc1F)C1CCCN(c2nc3cccnc3s2)C1 (stereo not drawn) | 105 | -23 | . | .
CC1CCN(C(=O)CSc2c3c(nc4ccccc24)CCCC3)CC1 | 105 | . | 104 | 88
COC(=O)c1ccc(C2c3c(-c4ccccc4O)n[nH]c3C(=O)N2Cc2ccncc2)cc1 (stereo not drawn) | 100 | -24 | 90 | 54
O=C(NC1CCCCC1)N1CCc2cc(S(=O)(=O)NC3CCCc4ccccc43)ccc21 (stereo not drawn) | 100 | -6 | . | .
O=C(O)c1cc2nc(C3CC3)cc(C(F)(F)F)n2n1 | . | -20 | 92 | 87
Cc1ccc(N(CC(=O)N2CCN(c3cc(Cl)ccc3C)CC2)S(=O)(=O)c2c(C)noc2C)cc1 | 104 | -24 | 102 | 94
COC(=O)CSc1nc2sc3c(c2c(=O)n1-c1ccc(C)cc1)CC(C(C)C)OC3 (stereo not drawn) | 107 | -28 | 115 | 97
COc1ccc(N(Cc2cc(-c3ccco3)on2)S(=O)(=O)c2cc(C)ccc2C)cc1 | . | -11 | 72 | 99
Cc1cc(Oc2ccccc2)nc(Oc2ccc(=O)[nH]n2)n1 | 101 | -10 | 101 | 89
COc1ccc(OCc2cc(=O)[nH]c3ccccc23)cc1 | 103 | -18 | 91 | 70
CSc1nc(C)nc(Nc2ccc(Cl)cc2Cl)c1C#N | 102 | -21 | 95 | 96
O=C(c1ccccc1)c1cnc(Nc2ccccc2)s1 | 103 | 8 | . | .
CC(=O)Nc1cccc(NC(=O)C2(c3cccs3)CCOCC2)c1 | 98 | . | 111 | 86
COc1ccc(Cl)cc1NC(=O)c1c(NCc2cccnc2)sc2c1CCC(C)C2 (stereo not drawn) | 112 | . | 46 | 42
O=C(Nc1cccc(Br)c1)C1Nc2ccccc2S(=O)(=O)N1 (stereo not drawn) | 104 | -8 | . | .
O=C(N/N=C/c1c(O)ccc2ccccc12)C1CC12CCC2 (stereo not drawn) | 100 | -50 | 123 | 98
Cc1c(NC(=O)c2cnn3c(C(F)(F)F)cc(-c4ccccc4)nc23)c(=O)n(-c2ccccc2)n1C | 100 | -48 | . | .
O=C(CSc1nc(-c2ccccc2)cs1)N1CCOCC1 | 90 | -2 | 102 | 95
Cc1cc(C)cc(NC(=O)Nc2ccc(SCc3cc(=O)n4c(ncn4C(C)C)n3)cc2)c1 | 105 | -17 | . | .
CCOC(=O)C1=C(C)NC(=S)NC1c1c(F)cccc1Cl (stereo not drawn) | 102 | 3 | 99 | 103
O=C(O)/C=C/C(=O)Nc1ccccc1OC(F)(F)F | 101 | -3 | 107 | 96
COc1ccc2nc(Cl)c(CNCCN(C)C)c(N3CCCCC3)c2c1 | 103 | -23 | 98 | 48
CCn1c(=O)n(CC)c2cc(S(N)(=O)=O)ccc21 | 106 | 9 | 95 | 101
COc1ccccc1/C=C/C(=O)OCC(=O)Nc1ccc(Cl)cn1 | . | 2 | 80 | 94
OC(COc1ccccc1)Cn1c(C2CC2)nc2ccccc21 (stereo not drawn) | 105 | -5 | . | .
Cc1cc(NCc2cccnc2)nc(N)n1 | 100 | 1 | 73 | 86
COC(=O)c1[nH]c2ccc(F)cc2c1N | 98 | -120 | 97 | 59
CCOC(=O)c1ccc(CN)o1 | 106 | 4 | 94 | 85
O=C(COc1ccc(-c2nnco2)cc1)NCc1ccco1 | . | -8 | 94 | 95
C[C@H](O)C(=O)C1=Nc2c(nc(N)[nH]c2=O)NC1 | 73* | -88 | . | .
Cc1ccc(NC(=O)CCSc2nc(-c3ccco3)cc(C(F)(F)F)n2)cc1F | 107 | 3 | 95 | 98
COc1ccc(-c2noc(CCC(=O)Nc3cccc(C)c3C)n2)cc1OC | 104 | 0 | 115 | 75
CCOc1ccccc1-c1noc(-c2cc(-c3ccccc3)n[nH]2)n1 | 98 | -17 | . | .
CC1CCN(c2nc(N3CCCCC3)nc(N3CCCCC3)n2)CC1 | 98 | -2 | 96 | 80
N#Cc1c(N)nc2sc(C(=O)c3ccc(Cl)cc3)c(N)c2c1-c1ccc(O)cc1 | 99 | -8 | . | .
O=C(Nc1cc2c(cc1C(=O)c1cccc(Br)c1)OCCO2)c1ccccc1F | 105 | -13 | 93 | 91

# Remaining list, next part:
smiles | GIV-Gai inh | HCMV UL50-53 inh | Sa growth 42C | Sa growth 42C second temp
Cc1sc2nc(SCC(=O)NCCCN3CCOCC3)n(-c3ccccc3)c(=O)c2c1C | 103 | -30 | . | .
O=C(N/C(=C\c1ccc2c(c1)OCO2)C(=O)N1CC2CC(C1)c1cccc(=O)n1C2)c1ccccc1F (stereo not drawn) | 107 | -19 | 92 | 88
S=C(NC1CC1)N1CCN(c2ccc(Cl)cc2)CC1 | 104 | -26 | 102 | 89
Cc1cc(C)c(C#N)c(SCC(=O)Nc2sc3c(c2C#N)CCC(C(C)(C)C)C3)n1 (stereo not drawn) | 100 | -20 | 91 | 91
Cc1ccc(NC(=O)[C@H](Cc2ccccc2)N2Cc3ccccc3C2=O)cc1 | 105 | -29 | 97 | 89
COc1ccc(-c2cn3nc(N4CCCC(C(=O)Nc5ccc(Cl)cc5C)C4)sc3n2)cc1 (stereo not drawn) | 104 | . | 113 | 97
Clc1ccc(-c2cc(-c3nc(-c4cccnc4)no3)[nH]n2)cc1 | 105 | -5 | . | .
O=C(Nc1ccccc1)N1CCN(c2ccc(C(F)(F)F)cn2)CC1 | 98 | . | 93 | 91
COc1ccc(S(=O)(=O)N2CC(OCc3ccc(Cl)cc3)C2)cc1OC | 95 | -10 | . | .
CC1CCCCN1S(=O)(=O)c1ccc(S(=O)(=O)NCc2ccc(F)cc2)cc1 (stereo not drawn) | 99 | -14 | 92 | 101
Cc1ccc(C)c(-n2nnc(-c3nc(-c4ccccc4C)no3)c2C)c1 | 104 | . | 117 | 92
CC1(C)CC(NC(=O)NCc2ccc3c(c2)OCO3)CC(C)(CNC(=O)NCc2ccc3c(c2)OCO3)C1 (stereo not drawn) | 108 | -18 | 109 | 94
N#CN=C(N)CSc1nc(-c2ccccc2)cc(-c2ccccc2)c1C#N | 99 | -34 | 95 | 77
O=C(Nc1ccn([C@H]2CC[C@@H](CO)O2)c(=O)n1)c1ccccc1 | 100 | -40 | 95 | 91
CC(C)NS(=O)(=O)c1ccc(OCC(N)=O)cc1 | 101 | -1 | 103 | 103
O=C1CCCN1c1ccc(S(=O)(=O)N2CCCCC2)cc1 | 96 | -8 | 102 | 89
Cc1cc(C)n2nc(N(Cc3c(F)cccc3Cl)S(=O)(=O)c3ccc(Cl)cc3)nc2n1 | 106 | -21 | . | .
Cc1cc(/C=N/n2c(SCC(=O)O)nnc2-c2ccoc2C)cc(C)c1O | . | -22 | 127 | 88
CCOC(=O)c1cc2ccsc2n1CC(=O)NC1CCCC1 | 110 | 4 | . | .
Cn1c(=O)c(C(=O)NCCc2ccccc2)cc2cccnc21 | 107 | -23 | . | .
CC1CCCC(NC(=O)COC(=O)Cc2cccs2)C1C (stereo not drawn) | . | 2 | 88 | 96
CCc1ccc(NC(=O)CSc2nc3n[nH]c(C)c3c(=N)n2-c2ccc(C)cc2)cc1 | 107 | . | 128 | 86
CC1CCN(C(=O)COC(=O)c2n[nH]c3ccccc23)CC1 | . | -41 | 101 | 92
CC(=O)Nc1ccc(NC(=O)C2=Cc3ccc(C)cc3OC=C2)cc1 | 104 | -3 | . | .
O=C(NCc1ccccn1)/C(=C/c1ccccc1Cl)c1ccccc1 | 98 | . | 85 | 88
COc1ccc(C2Nc3ccccc3C(=O)N2c2ccc(Cl)cc2)cc1COc1ccc(NC(C)=O)cc1 (stereo not drawn) | 95 | -20 | . | .
Cc1ccccc1-c1nc(CS(=O)(=O)CC(=O)NC(C)c2ccccc2)c(C)o1 (stereo not drawn) | 108 | 32 | 101 | 105
CC(C)Oc1ccc(CNC(=O)CCCn2c(=O)c3cccn3c3ccccc32)cc1 | 97 | -4 | 98 | 60
COc1ccccc1NC(=O)CSC1=Nc2ccccc2C2=NC(Cc3ccccc3)C(=O)N12 (stereo not drawn) | 102 | . | 120 | 85
Cc1cc(Cl)ccc1NC(=O)Cn1nnc2sc(-c3ccccc3)cc2c1=O | 101 | 2 | 97 | 88
Cc1ccc(-c2onc(C)c2C)cc1S(=O)(=O)NCCC1=CCCCC1 | 106 | -17 | 88 | 77
CCCn1c2ccccc2c2nnc(SCCCC(=O)c3ccc4c(c3)OCCO4)nc21 | 102 | . | 96 | 69
CC(=O)Nc1ccccc1-c1nc2ccccc2n(CC(=O)c2ccccc2)c1=O | 104 | -23 | . | .
COc1cc(OC)cc(-c2nc(-c3cc4c(C)nn(-c5ccccc5)c4s3)no2)c1 | 107 | 4 | . | .
O=C(NCc1ccccc1)NC(=O)c1ccccc1I | 98 | -18 | 116 | 110
CC(C)CC(NC(=O)Cc1ccsc1)C(=O)NN (stereo not drawn) | 105 | -1 | 107 | 97
CC(C)(C)CC(=O)NCc1nc(-c2ccc(Cl)cc2)no1 | 100 | -12 | 96 | 86
CCCOC(=O)C1=C(C)NC2=C(C(=O)CC(c3ccc(OC)c(OC)c3)C2)C1c1cc(OC)ccc1OC (stereo not drawn) | 101 | -23 | . | .
CCOc1ccc(N2C(=O)CC(NC3CCN(c4ncccn4)CC3)C2=O)cc1 (stereo not drawn) | 101 | -17 | 97 | 98
OC(c1ccccc1)c1oc2ccccc2c1-c1cnn(-c2ccccc2)c1 (stereo not drawn) | . | -3 | 137 | 84
CC(C)(C)NC(=O)CN1CCN(c2cc(C(=O)O)c3cc(NC(=O)C4CCC4)ccc3n2)CC1 | 111 | -50 | . | .
CCCCCOc1ccc(/C=C/C(=O)Nc2sc3c(c2C(=O)OCC)CCC3)cc1OC | 103 | -44 | 100 | 91
Cc1ccc(NC(=O)C2CCCN(S(=O)(=O)c3c(C)noc3C)C2)cc1 (stereo not drawn) | 99 | 14 | 104 | 104
CSc1ncnc2nc[nH]c12 | 94 | 0 | 90 | 82
CCCCS(=O)(=O)Nc1ccc2c(c1)ncn2C1CCCCC1 | 112 | 1 | 107 | 106
O=C(Nc1ccc(OCc2cc(=O)n3[nH]cnc3n2)cc1)c1ccccc1 | 106 | -29 | . | .

# Compound activity (PubChem)

# Rows are unselected; 0.8% or so of the library scored in one or more.
